CDC25B-CDK2 inh – human CDC25B-CDK2/CyclinA binding inhibition. P30305+P24941. HTRF CDC25B-CDK2/CyclinA binding, anti-His/anti-Flag; active compounds read high. z-score (no concentration beside the values). 94,000 tested, 0.72% active;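 further: score is relative to mean and SD of negative controls; strong numbers were not always called active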
TAR Tat displ – HIV-1 TAR-Tat binding disruption; HIV-1 TAR RNA, Tat peptide displacement FRET; active compounds read high; z-score (concentration not given with the values); 100,000 tested, 0.6% active; AID 1259389;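 further: score is relative to mean and SD of negative controls; some compounds called inactive have numbers as strong as hits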
* marks the source's active call; other numbers are inactive results; / = not tested or not shown.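 How the source made its calls: active means z-score from 3 up in half or more of its runs; inactive means the rest.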

SMILES | CDC25B-CDK2 inh | TAR Tat displ
COc1ccccc1N1CCN(C(=O)CCCC2=NS(=O)(=O)c3ccccc3N2)CC1 | / | 0.38
CC(C)NC(=O)Cn1ncn2nc(-c3cccs3)cc2c1=O | -2.33 | 0.04
CC(C)S(=O)(=O)c1cscc1N/C=C(/C#N)C(=O)c1cccs1 | 8.41* | /
Cc1nc(S(=O)(=O)Nc2ccc3c(c2)OCCO3)cn1C | -0.35 | /
c1cc(-c2nc3c4c5c(sc4ncn3n2)CCCC5)ccn1 | -0.01 | 0.21
CC(C)OC1OC(=O)C(Cl)=C1N1CCOCC1 (centres undefined) | -0.61 | /
Cc1ccc(-c2nnc(SCC(=O)c3c(C)[nH]c4ccccc34)o2)cc1 | -3.97 | -0.17
Cn1ncc2c(Nc3ccccc3)nc(N3CCN(C(=O)c4ccco4)CC3)nc21 | / | 1.49
CCCC1c2ccc(C)n2CCN1C(=O)Nc1ccc(OCC)cc1 (centres undefined) | -1.95 | -8.98
CCCS(=O)(=O)c1csc(C(=O)OC)c1NNS(=O)(=O)c1ccccc1C(F)(F)F | -0.62 | /
COc1cc(OC)c2c(c1)OC(c1ccccc1)CC2=O (centres undefined) | / | 0.7
Cc1nc(SC(C)C)[nH]c(=O)c1Cc1ccccc1 | -2.73 | -0.02
CC(=O)N(c1ccc(Cl)cc1)C1SC(=O)N(c2ccc(C)cc2)C1=O (centres undefined) | -0.5 | /
CCOc1ccc(C(O)(C(C)C)C(CN2CCOCC2)c2ccccc2)cc1 (centres undefined) | -0.98 | -0.91
CCOc1cc(C(=O)Nc2ccc(-c3nc4ccccc4o3)c(O)c2)cc(OCC)c1OCC | -3.04 | /
Cc1nn(CC(=O)NC(C)(C)C)c(C)c1S(=O)(=O)N1CCC(C(=O)N2CCN(C)CC2)CC1 | / | 1.71
Cc1nc2c(c(Nc3ccc(F)cc3)n1)CCC2 | -1.2 | 0.47
CC(=O)Nc1ccccc1OCC(O)CNCc1ccc(C(F)(F)F)cc1 (centres undefined) | -1.02 | /
Cc1cc2nc(CSc3nnc(NC(=O)c4ccccc4)s3)cc(=O)n2o1 | / | 3.54
O=C(NC1CC1)c1ccc(CSc2nc3cccnc3n2Cc2ccccc2F)cc1 | / | -0.47

13 entries from above, arranged by number of heavy atoms, rising:
SMILES | CDC25B-CDK2 inh | TAR Tat displ
CC(C)OC1OC(=O)C(Cl)=C1N1CCOCC1 (centres undefined) | -0.61 | /
Cc1nc2c(c(Nc3ccc(F)cc3)n1)CCC2 | -1.2 | 0.47
Cc1nc(SC(C)C)[nH]c(=O)c1Cc1ccccc1 | -2.73 | -0.02
COc1cc(OC)c2c(c1)OC(c1ccccc1)CC2=O (centres undefined) | / | 0.7
c1cc(-c2nc3c4c5c(sc4ncn3n2)CCCC5)ccn1 | -0.01 | 0.21
CCCC1c2ccc(C)n2CCN1C(=O)Nc1ccc(OCC)cc1 (centres undefined) | -1.95 | -8.98
Cc1ccc(-c2nnc(SCC(=O)c3c(C)[nH]c4ccccc34)o2)cc1 | -3.97 | -0.17
Cc1cc2nc(CSc3nnc(NC(=O)c4ccccc4)s3)cc(=O)n2o1 | / | 3.54
CCOc1ccc(C(O)(C(C)C)C(CN2CCOCC2)c2ccccc2)cc1 (centres undefined) | -0.98 | -0.91
CCCS(=O)(=O)c1csc(C(=O)OC)c1NNS(=O)(=O)c1ccccc1C(F)(F)F | -0.62 | /
O=C(NC1CC1)c1ccc(CSc2nc3cccnc3n2Cc2ccccc2F)cc1 | / | -0.47
Cc1nn(CC(=O)NC(C)(C)C)c(C)c1S(=O)(=O)N1CCC(C(=O)N2CCN(C)CC2)CC1 | / | 1.71
CCOc1cc(C(=O)Nc2ccc(-c3nc4ccccc4o3)c(O)c2)cc(OCC)c1OCC | -3.04 | /

(more compounds)
SMILES | CDC25B-CDK2 inh | TAR Tat displ
CCN(CCN(C)C)C(=O)Cn1ncc2c1-c1cc(C)ccc1OC2 | -1.17 | -0.61
CCOC(=O)c1cc(S(=O)(=O)NC2CCN(C(=O)OCC)CC2)cn1C | -1.45 | 0.53
Cc1nc(-c2ccc(S(=O)(=O)NN)cc2)c(-c2ccc([N+](=O)[O-])cc2)o1 | -0.71 | /
Cc1nc(-c2ccc(S(=O)(=O)N3CCN(c4cc(Cl)ccc4C)CC3)cc2)co1 | / | 0.77
COc1ccc(S(=O)(=O)N(C)CCO)cc1-c1nnc2c3ccccc3c(C)nn12 | -0.74 | 0.17
CN(C(=O)c1nc(-c2ccncc2)no1)c1ccccc1F | / | 1.74
Cc1ccc(-c2onc(C)c2C)cc1S(=O)(=O)N1CCc2ccccc21 | / | -0.4
CCCCSCc1[nH]c(=O)[nH]c1C(=O)CCCCC(=O)OCC | -1.49 | /
Fc1ccc(CSc2nc3ncccc3[nH]2)c(Cl)c1 | 0.19 | 1.71
c1cncc(-c2csc(Nc3nc4cc5c(cc4s3)OCO5)n2)c1 | -1.56 | /
CCOC(=O)c1c(NC(=O)NS(=O)(=O)c2ccccc2Cl)sc2c1CCCC2 | -0.94 | /
CCCCN(Cc1cc2cccc(C)c2[nH]c1=O)S(C)(=O)=O | -0.08 | 1.38
CCCCCNC(=O)c1c(O)c2c([nH]c1=O)CCCC2 | / | 1.65
N#C/C(=C\Nc1cccnc1)C(=O)c1ccc(OC(F)(F)F)cc1 | -1.63 | /
CN(CCCC(=O)Nc1nccs1)S(=O)(=O)c1ccc(Cl)cc1 | 0.02 | -0.02
O=C(NC1CCCCC1)c1ccc(CN2CC(=O)N3CSCC3C2=O)cc1 (centres undefined) | / | 2.31
COc1ccc(NC(=O)NCCSc2nnnn2-c2ccccc2)cc1 | -0.76 | 1.69
Nc1c(-c2nc(-c3ccccc3)no2)nnn1-c1cccc(Cl)c1 | / | 1.1
CC1=C(OC(=O)c2c(Cl)cccc2Cl)C(=O)CC1 | -1.27 | /
Cc1nn(CCCC(=O)N2CCOCC2)c(=O)c2c1sc1ccccc12 | -2.26 | 2.06
Cc1sc(-c2noc(C3CCC3)n2)cc1NC(=O)CN1C(=O)COc2ccc(Cl)cc21 | / | 0.79
COc1ccc(-c2nc3n(c2C)Cc2ccccc2-3)cc1 | -0.44 | 3.25
O=C(CSC1=Nc2ccccc2C2=NC(c3ccccc3)C(=O)N12)Nc1ccccc1 (centres undefined) | / | -1.52
COC(=O)c1ccc(Oc2nc(C)cc(N)n2)cc1 | -2.13 | 0.11
CCOCCCNC(=O)Cn1c2cc(OC)c(OC)cc2c2nc(=O)cc(C)n21 | 0.16 | 0.38
Cc1nc2c(c(Nc3cccc(Cl)c3)n1)CCC2 | -1.15 | 1.17
CCNc1sc(S(=O)(=O)CC)nc1S(=O)(=O)c1ccc(C)cc1 | -0.61 | -0.07
Nc1nc(CSCCO)nc(Nc2ccc(F)cc2)n1 | -0.03 | 1.09
CNc1n[nH]c(N)c1-c1nc(-c2ccccc2C)no1 | -0.26 | -0.02
COc1ccc(S(=O)(=O)Nc2cccc(-c3ccc(S(C)(=O)=O)nn3)c2)cc1F | / | -0.22
O=C(c1ccc(Oc2ccc(Cl)cc2)c([N+](=O)[O-])c1)N1CCCC1 | 0.16 | /
Cc1ccc(NCCc2ccccn2)c([N+](=O)[O-])c1 | -1.6 | /
O=C1c2ccccc2C(Nc2ccccc2F)N1c1ccccn1 (centres undefined) | 0.37 | 0.02
O=C(NC1CCS(=O)(=O)C1)C1=Cc2ccccc2OC1 (centres undefined) | / | -0.23
Cc1cc(C)c2oc(C(=O)Nc3cccnc3)cc(=O)c2c1 | -2.2 | 0.43
CC(=O)N1c2ccccc2NC2=C(C(=O)CC(C)(C)C2)C1c1ccc(-c2cccc(C(=O)O)c2)o1 (centres undefined) | -0.08 | -0.65
c1ccc(CCc2nn3c(-c4ccccc4)nnc3s2)cc1 | 0.88 | -0.13
Cc1oc(-c2ccccc2)nc1Cn1nc(C)c2c(C)onc2c1=O | / | 0.15
Oc1cc2c(cc1C(c1ccc(C(F)(F)F)cc1)N1CCCCC1)OCO2 (centres undefined) | -2.5 | /
O=S(=O)(Nc1ccc(-c2csnn2)cc1)c1ccc(Cl)cc1 | -2.11 | /
O=c1c(N2CCN(c3ccccc3Cl)CC2)csc2ccccc12 | / | 0.93
CC(C)CCNC(=O)N1CCC(CN2CC(C)CC(C)C2)CC1 (centres undefined) | / | -0.65
COC(=O)C1=C(OC(=O)c2ccc(F)cc2)c2ccccc2S(=O)(=O)N1C | 0.83 | -1.62
CCN(C1=C(C(=O)N2CCOCC2)S(=O)(=O)c2ccccc21)c1ccccc1 | / | -0.84
CCc1nn(CCCC(=O)NC(C)(C)C)c(=O)c2cc3oc(C)cc3n12 | -0.9 | 0.58
Cn1cccc1Cc1nnc(SCC(=O)NCc2ccc3c(c2)OCO3)n1C | 0.04 | -1.31
Cc1nn(CC(=O)NCCCN2CCCC2=O)c(=O)c2cc3cc(F)ccc3n12 | -1.62 | -0.13
O=C1N(Cc2ccccc2)c2ccc(Cl)cc2C1(O)c1c[nH]c2ccccc12 (centres undefined) | 0.46 | -1.32
Cc1cc(NC(=O)c2snnc2C)no1 | 0.58 | 1.44
Cc1cc2c(c(=O)n1CC1CCCO1)C(c1cccs1)C(C#N)=C(N)O2 (centres undefined) | -0.18 | /
The list goes on:
SMILES | CDC25B-CDK2 inh | TAR Tat displ
COCCn1cnc2c(oc3nc4c(cc32)COC(C)(C)C4)c1=O | / | 0.71
CN(C)S(=O)(=O)N(CC(=O)Nc1ccc(F)cc1F)c1ccccc1 | -1.38 | -1.03
COCCN(CCNc1nc2ccccc2c2nc(-c3cccnc3)nn12)Cc1ccco1 | 1.32 | 0.72
CC(=O)N1c2ccc(S(=O)(=O)N3CCCC(C(=O)Nc4cccc(C)n4)C3)cc2CC1C (centres undefined) | / | -0.14
CSc1ccccc1NC(=O)C1CC(c2cccc(Br)c2)=NO1 (centres undefined) | -0.39 | 1.4
O=C(Cn1nnc2sc3c(c2c1=O)CCCC3)OC1CCCC1 | -0.56 | -1.23
CCCc1nnc2sc(NC(=O)c3ccco3)nn12 | -1.32 | 2.06
CCCN1C(SCC(=O)c2ccccc2)=NS(=O)(=O)c2ccccc21 | / | 0.36
CCOC(=O)N1CCN(C2=NS(=O)(=O)C(c3ccc(C)c(C)c3)=C2C)CC1 | -5.92 | 1.84
O=C1CC(c2ccc(Br)cc2)C2=C(CC(c3ccc(F)cc3)CC2=O)N1 (centres undefined) | -1.12 | -0.4
Cc1ccnn1-c1nc(-c2ccc(F)cc2)cc(C(F)(F)F)n1 | -0.52 | 0.38
NC(=O)CN1N=C(c2ccccc2)c2cc(Cl)ccc2S1(=O)=O | / | 0.86
COC(=O)c1ccc(S(=O)(=O)NNC(=O)c2cn3cc(C(F)(F)F)cc(Cl)c3n2)n1C | -1.93 | /
CN1C(=O)C(C)(C)c2cc(S(=O)(=O)N(C)CC(=O)NC3CCCCC3)ccc21 | / | 1.9
Cc1nnc2ccc(N3CCC(c4ccccc4)C3)nn12 (centres undefined) | -1.4 | 0.4
CCOC(=O)c1sc2cccc(F)c2c1S(=O)(=O)Nc1ccc2c(c1)OCCO2 | / | -0.39
O=C(CN1C(=O)c2ccccc2S1(=O)=O)Nc1ccccc1Oc1ccccc1 | -0.77 | 0.12
O=C(CSc1ccc2nnc(-c3ccc(F)cc3)n2n1)N1CCCCC1 | -1.26 | /
CC(=O)NC(Nc1ccc(S(N)(=O)=O)cc1)(C(F)(F)F)C(F)(F)F | -1.53 | /
C=CCNC(=O)CN=C1NS(=O)(=O)C(c2ccc(C)c(C)c2)=C1C | / | 0.52
O=[N+]([O-])c1cccc(-c2nnco2)c1 | 0.21 | /
Cc1c(C(=O)N2CCCC2)c(S(=O)(=O)Nc2ccc(Br)cc2F)c(C)n1C | / | 1.88
FC(F)(F)COc1ccc(-c2nc(-c3ccc(Cl)cc3)no2)cn1 | -1.45 | /
CCOC(=O)O[C@]1(C(=O)OCCl)CC[C@H]2[C@@H]3CCC4=CC(=O)C=C[C@]4(C)[C@H]3[C@@H](O)C[C@@]21C | / | 3.73
CCOc1ccc(NC2CC(=O)N(c3ccc(OCC)cc3)C2=O)cc1 (centres undefined) | -0.52 | 0.58
CCN(Cc1ccccc1)C1=NS(=O)(=O)C(c2ccc(F)cc2)=C1C | / | -1.29
CC(=O)N1N=C(c2ccncc2)OC1c1ccc(C(C)C)cc1 (centres undefined) | -1.36 | /
CCOCCCN[C@H]1CS(=O)(=O)C[C@@H]1S(=O)(=O)c1ccc(F)c(C)c1 | -0.14 | 1.89
CCC1CCCCN1CCCNC(=O)C1CCCN(c2nn3c(=O)cc(C)nc3s2)C1 (centres undefined) | -0.34 | 1.31
N#CC1=C2SCN(CCN3CCOCC3)CN2C(=O)CC1c1ccc(F)cc1 (centres undefined) | 0.4 | 1.69
Cc1nnc2sc(SCC(=O)N3CCOCC3)nn2c1=O | / | 1.11
COc1ccc2nc3oc(C(=O)Nc4ccc(F)cc4)cc3cc2c1 | -0.06 | /
CC(C)(C)NC(=O)C1CC(c2ccc(F)cc2)=NO1 (centres undefined) | -0.53 | 1.61
Cc1ccc(S(=O)(=O)Nc2nc(O)c(C3=c4cc([N+](=O)[O-])ccc4=NC3=O)s2)cc1 | -3.72 | /
O=c1c(NCc2ccc3c(c2)OCO3)nccn1-c1ccc(Cl)cc1 | / | -2.94
CN(C)S(=O)(=O)N1CCC(n2cnc3cccnc32)CC1 | / | 0.39
O=C(CCc1nnc2ccc(NCc3ccco3)nn12)Nc1ccc2c(c1)OCO2 | / | 2.8
O=C(CSc1nnnn1-c1ccccc1)NC1Cc2ccccc2C1 | -1.59 | /
Cc1cc(C)c(S(=O)(=O)NCCc2cn3cccc(C)c3n2)c(C)c1 | -0.82 | /
Cc1cc(Nc2cccc(O)c2)c2cccc(C)c2n1 | 1.81 | 0.82
O=C/C=C/c1ccc(O)cc1 | / | -0.13
CNC(=O)N1c2ccccc2NC(=O)CC1C (centres undefined) | -0.66 | /
COc1ccc(-n2nnnc2C2CCN(S(=O)(=O)c3cc(OC)ccc3OC)CC2)cc1 | -0.38 | 1.09
Cc1cc(C)n2nc(NCc3cccc(Br)c3)nc2n1 | -0.07 | 0.57
